TAR Tat displ: TAR RNA-Tat peptide displacers, HIV-1, primary screen, biochemical, FRET, FAM/TAMRA-labeled Tat | z-score (concentration not given with the values) | 100,000 compounds, 0.6% hits | HIV-1 TAR RNA, Tat peptide displacement FRET; stronger effect = higher value | AID 1259389, 2018;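 note: score is relative to mean and SD of negative controls; some compounds called inactive have numbers as strong as hits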
CDC25B-CDK2 inh: primary biochemical HTRF screen for blockers of M-phase inducer phosphatase 2 binding to CDK2/cyclin A. HTRF CDC25B-CDK2/CyclinA binding, anti-His/anti-Flag; stronger effect = higher value. 94,000 compounds, 0.72% hits. z-score (no concentration beside the values). AID 1259370, 2018. P30305+P24941;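 note: score is relative to mean and SD of negative controls; strong numbers were not always called active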
Active calls of the source: *; . = not tested or not shown.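 Rule for the calls: active = z-score from 3 up in half or more of its runs; inactive = the rest.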 This is a random part of the collection; about 0.94% have a hit in one of these screens.

SMILES | TAR Tat displ | CDC25B-CDK2 inh
O=C(c1cc2ccccc2o1)N1CCN=C1SCc1cccc(Cl)c1 | . | -1.4
O=C(NCCCN1CCCC1)c1ccc(CS(=O)c2ccccc2)o1 (configuration not stated) | 0.55 | 0.77
COc1ccc(C2=CC(c3ccc(Br)cc3)n3ncnc3N2)cc1 (configuration not stated) | -0.56 | -2.5
O=S1(=O)C[C@H](N2CCc3ccccc3C2)[C@@H](S(=O)(=O)c2ccc(F)cc2)C1 | 0.3 | -1.2
CCn1cnc(S(=O)(=O)N2CCCC(C(=O)Nc3nccs3)C2)c1 (configuration not stated) | -4 | .
O=C(Cn1cc2c(n1)CCCC2)NCCCN1CCOCC1 | . | -1.5
COc1ccc(-c2nnc(SCC(=O)Oc3ccc(Cl)cc3)o2)cc1 | -0.02 | 0.72
CCn1c(=O)[nH]c(=O)c2cnc(-c3ccc(Cl)cc3)nc21 | 2.3 | -1.3
CCCCc1nnc2sc(NC(=O)C(C)C)nn12 | 1.7 | -0.72
Cc1ccc(C)n1-c1ccc(Br)cc1C(=O)O | 19* | -0.62
Cc1ccc(CN(C(=O)c2oc3ccccc3c2C)c2ccccn2)o1 | -0.94 | -0.38
COc1cc(C2C(C(=O)OCc3ccccc3)=C(C)NC3=C2C(=O)CCC3)cc(Br)c1O (configuration not stated) | -1.7 | -2
O=C1C2=C(Nc3ccccc3SC2c2cccnc2)c2ccccc21 (configuration not stated) | -1.9 | -1.7
O=C(C1=C2c3[nH]c4ccccc4c3CCN2C(=O)CC1)c1ccccc1 | -1.6 | -1.5
O=C(CCC(=O)NC1CCCCCC1)Nc1nc(-c2cc3ccccc3oc2=O)cs1 | . | 0.12
O=C(O)c1ccc2c(c1)S(=O)(=O)c1ccccc1C2=O | 2.3 | -0.65
COc1ccc(C2CC(c3cccs3)n3nnnc3N2)cc1 (configuration not stated) | 1.5 | .
CCCOC(=O)C1=C(C)NC2=C(C(=O)CC(C)(C)C2)C1c1ccc(OC)cc1OC (configuration not stated) | 1.8 | 0.23
COC(=O)c1ccc(-n2ncnc2-c2ccc(Br)cc2)cc1 | 1 | -1.6
COc1ccc(NC(C)=O)cc1NC(=O)CN1CCN(c2ccccn2)CC1 | . | -0.64
COc1cccc(Nc2nc(NC3CCCCC3)nc3c2cnn3C)c1 | 0.26 | .
COC(=O)c1sc(-c2ccc(C(C)(C)C)cc2)cc1NS(=O)(=O)c1cn(C)cn1 | . | 0.37
CCOCCCNc1cc(N2CCN(CC)CC2)c2noc3c2c1C(=O)c1ccccc1-3 | 3.8 | -2.4
Cc1cc(=O)c2c(O)c3c(cc2o1)OC(C)(C)CC3 | 0.21 | .
CS(=O)(=O)CC(=O)NC1CCCCC1 | . | -0.62
CC(C)=C1CCC(C)C/C1=N\O (configuration not stated) | . | -0.69
CC(C)c1ccc(NC2OC(=O)c3ccccc32)cc1 (configuration not stated) | -0.2 | -1.9
COc1ccc(/C(O)=C2/C(=O)C(=O)N(CCCN3CCOCC3)C23C(=O)N(C)c2ccccc23)cc1 (configuration not stated) | 0.41 | -0.62
O=C(Nc1ccccn1)C1CCCN(c2ncnc3c2nc2n3CCCCC2)C1 (configuration not stated) | 1.7 | .
Cc1cc(N2CCN(C3=NCC(C)(C)S3)CC2)n2c(nc3ccccc32)c1C#N | . | -1.7
c1coc(-c2nc(-c3ccncc3)no2)c1 | . | -2.8
Brc1ccc(-c2noc(COc3ccccc3)n2)cc1 | . | -1.4
CN(C)c1ccc(NC(=O)c2cnccn2)cc1 | -0.16 | -1.9
CN(C)S(=O)(=O)c1ccc2c3c(cccc13)C(=O)N2C(=O)c1cccnc1 | 2.1 | -1.4
COc1cc(OC)cc(-c2nnc(SCC(=O)NC3CCCCC3)o2)c1 | 2.8 | -2.4
CS(=O)(=O)C1CS(=O)(=O)CC1O (configuration not stated) | . | -1.5
CC1c2[nH]c3ccccc3c2CCN1C(=O)Nc1ccccc1 (configuration not stated) | . | -2
O=c1[nH]c(NCc2ccco2)nnc1Cc1ccc(Cl)cc1 | . | -0.32
CC(CN(C)C)CN1c2ccccc2Sc2ccccc21 (configuration not stated) | 0.59 | .
COc1ccc(Cn2c(=O)c3cccnc3n(Cc3cc(=O)n4cc(Cl)ccc4n3)c2=O)cc1 | 0.73 | -0.56
COc1cccc2sc(N(CCN(C)C)C(=O)CCS(=O)(=O)c3ccccc3)nc12 | 0.95 | .
COc1cn(CC(=O)Nc2ccc(Br)cc2)c(CSc2nc(C)cc(C)n2)cc1=O | 2 | .
CCCN1CCN(c2ncc3c(n2)CCN(CC(C)C)C3)CC1 | -0.14 | .
Cc1cc(C)c(C)c(S(=O)(=O)N2CCC(N3CCCCC3)CC2)c1C | 0.43 | -0.39
COc1cc(OC)c(NC(=O)NCCc2csc(C)c2C)cc1Cl | -0.4 | .
CCCc1nn2c(=O)cc(CSc3nnc(NC(C)=O)s3)nc2s1 | 1.4 | .
Cc1ccc2nc(C3=C(O)CN(c4cccc(Cl)c4C)C3=N)[nH]c2c1 | 1.6 | 0.81
CCOC(=O)C1CCN(C(=O)c2oc3ccc(S(=O)(=O)N4CC(C)CC(C)C4)cc3c2C)CC1 (configuration not stated) | 0.15 | 0.3
Cc1cc(C2CCCN2C(=O)c2nn(C)cc2Cl)no1 (configuration not stated) | 1 | .
Cn1c(=O)c(=O)n(C)c2cc(NC(=O)c3cccs3)c(Cl)cc21 | -0.4 | .

14 successive entries from above:
SMILES | TAR Tat displ | CDC25B-CDK2 inh
CN(C)S(=O)(=O)c1ccc2c3c(cccc13)C(=O)N2C(=O)c1cccnc1 | 2.1 | -1.4
COc1cc(OC)cc(-c2nnc(SCC(=O)NC3CCCCC3)o2)c1 | 2.8 | -2.4
CS(=O)(=O)C1CS(=O)(=O)CC1O (configuration not stated) | . | -1.5
CC1c2[nH]c3ccccc3c2CCN1C(=O)Nc1ccccc1 (configuration not stated) | . | -2
O=c1[nH]c(NCc2ccco2)nnc1Cc1ccc(Cl)cc1 | . | -0.32
CC(CN(C)C)CN1c2ccccc2Sc2ccccc21 (configuration not stated) | 0.59 | .
COc1ccc(Cn2c(=O)c3cccnc3n(Cc3cc(=O)n4cc(Cl)ccc4n3)c2=O)cc1 | 0.73 | -0.56
COc1cccc2sc(N(CCN(C)C)C(=O)CCS(=O)(=O)c3ccccc3)nc12 | 0.95 | .
COc1cn(CC(=O)Nc2ccc(Br)cc2)c(CSc2nc(C)cc(C)n2)cc1=O | 2 | .
CCCN1CCN(c2ncc3c(n2)CCN(CC(C)C)C3)CC1 | -0.14 | .
Cc1cc(C)c(C)c(S(=O)(=O)N2CCC(N3CCCCC3)CC2)c1C | 0.43 | -0.39
COc1cc(OC)c(NC(=O)NCCc2csc(C)c2C)cc1Cl | -0.4 | .
CCCc1nn2c(=O)cc(CSc3nnc(NC(C)=O)s3)nc2s1 | 1.4 | .
Cc1ccc2nc(C3=C(O)CN(c4cccc(Cl)c4C)C3=N)[nH]c2c1 | 1.6 | 0.81

Further compounds.
SMILES | TAR Tat displ | CDC25B-CDK2 inh
Cc1ccc(S(=O)(=O)c2nnn3c2nc(NCc2ccco2)c2ccccc23)cc1 | 1.2 | -1.5
COc1ccc(-c2nc3scc(CCNS(=O)(=O)c4ccc(OC)c(F)c4)n3n2)cc1 | 2 | .
Cc1ccc2onc(CNC(=O)NCCN(C)C3CCCCC3)c2c1 | 1.4 | .
Cc1ccc2nc(-c3cccnc3)[nH]c2c1 | 3.4 | -1.1
CCOC(=O)CSc1nc2ccccc2c(=O)[nH]1 | . | -0.81
CCN1CCN(CCCNC(=O)C(=O)Nc2ccc3nc4n(c(=O)c3c2)CCCCC4)CC1 | . | -1.1
COc1ccc(-c2nnc3n2C(C)(C)Cc2c-3ccc3ccccc23)cc1OC | 0.09 | -0.86
CCOC(=O)c1csc(-c2csc(C)n2)n1 | . | -1.3
Cn1nnc2c(C(N)=O)ncn2c1=O | 1 | .
CC(C)NNC(=O)c1nc(-c2ccccc2)cc(-c2ccccc2)n1 | . | -0.07
Cn1c(=O)c2c(nc(N3CCOCC3)n2Cc2c(F)cccc2Cl)n(C)c1=O | 0.35 | 0.17
O=C(Nc1ccc(F)c(F)c1)C1CCN(S(=O)(=O)c2cccc3nonc23)CC1 | . | -0.44
Cc1cc2nc(-c3ccc(NC(=O)c4ccc5c(c4)OCCO5)cc3O)oc2cc1C | . | -1.3
O=C(CCC(=O)N1CCOc2ccc(Cl)cc21)NCc1ccco1 | 0.44 | -0.77
Cc1[nH]c(=O)[nH]c(=O)c1S(=O)(=O)N1CCC(C(=O)NCc2ccco2)CC1 | 1.1 | 0.71
N#C/C(=C\N1CCOCC1)c1ccccc1 | . | -4.2
C(=C\c1nc(-c2ccc3c(c2)nnn3C2CCCC2)no1)/c1ccco1 | 1.2 | .
CCOC(=O)c1noc2ncnc(N3CCC(C(=O)OCC)CC3)c12 | 0.79 | .
Fc1ccc(N2CN(Cc3ccco3)CNC2=S)cc1 | . | 0.56
CCOc1cccc(C(Nc2cccc(C)n2)c2ccc3ccc(C)nc3c2O)c1 (configuration not stated) | . | -3.7
Nc1nnc(-c2cc(-c3ccc(Cl)cc3)on2)o1 | -1.2 | -2.1
Cc1nn(S(=O)(=O)c2ccc(C(C)(C)C)cc2)c(C)c1S(=O)(=O)N1CCCC(C)C1 (configuration not stated) | 1 | .
CCCC1c2cccn2CCN1C(=O)Nc1ccc(F)cc1 (configuration not stated) | -0.67 | .
CN(C)c1ccc(CNC(=O)CN(C)S(=O)(=O)c2ccc3c(c2)CCC(=O)N3)cc1 | . | -0.35
CN1C(C(=O)N2CCCc3ccccc32)=CC(c2ccc3c(c2)OCO3)=NS1(=O)=O | 2.1 | -2.2
COc1ccc(OC)c(CNc2nn3nnnc3c3ccccc23)c1 | 0.33 | .
O=C1CSC(c2ccc(F)cc2)N1c1ccc2ccccc2c1 (configuration not stated) | -0.28 | -0.3
Cc1ccsc1CN(C(=O)c1ccc(C(C)(C)C)cc1)C1CCS(=O)(=O)C1 (configuration not stated) | 1.7 | -2
O=C(O)CCC(=O)N1N=C2/C(=C/c3ccc(F)cc3)CCCC2C1c1ccc(F)cc1 (configuration not stated) | 1.3 | 1.2
C=CCNC(=O)Nc1c[nH]c2c(C)cccc2c1=O | 1.5 | 0.31
Cc1ccc(-c2noc(C(C)Oc3cccc(Cl)c3)n2)cc1 (configuration not stated) | 2.5 | -3.8
NC(=O)C1CCN(C(=O)Cc2ccc(NC3=NC4CS(=O)(=O)CC4S3)cc2)CC1 (configuration not stated) | -1.3 | 0.07
CC(C)c1ccc(OCc2nc(-c3ccccn3)no2)cc1 | 0.93 | 0.3
Cc1ccc(C(=O)/C=C/C(=O)O)c(C)c1F | . | -0.51
Cc1cccc(CNc2nc(N3CCCC3)nc3c2cnn3C)c1 | 2.2 | .
CC(C)Oc1ccccc1Nc1ncnc2ccccc12 | -0.85 | 0.39
CSCCn1c(-c2ccccc2)cc(C(=O)Nc2ccc(Cl)cc2)c1C | . | -2.3
O=C(CSc1nc2ncccc2[nH]1)Nc1ccc2c(c1)OCCO2 | 0.56 | .
Cc1cc(C)c2c(-n3cccc3)nn(CC(=O)NC(C)c3ccc4c(c3)OCCO4)c2n1 (configuration not stated) | 0.96 | .
O=C(/C=C/c1ccc(-c2cccc([N+](=O)[O-])c2)o1)Nc1cccc(Cl)c1 | . | -4.5
O=C(O)C(Cc1c[nH]c2ccccc12)N1C(=O)C2CCCCC2C1=O (configuration not stated) | -0.11 | -0.84
COc1ccc(Cl)cc1N(C)C(=O)c1noc2c1CSc1ccccc1-2 | 0.01 | -0.73
CSC1=NCCCN1S(=O)(=O)c1cc(Cl)c(Cl)cc1Cl | . | -2.5
CCOC(=O)N1CCN(C(=O)c2noc(C(C)C)c2[N+](=O)[O-])CC1 | 2.8 | -1.2
CCOC(=O)COc1ccc2c(=O)c(Oc3ccc(C(C)(C)C)cc3)coc2c1 | -0.05 | 0
CCC(Sc1nc(C)cc(=O)[nH]1)C(=O)Nc1nc2c(s1)CCCC2 (configuration not stated) | . | 2.2
O=C1Nc2ccccc2/C1=C\C1CC2C=CC1C2 (configuration not stated) | . | -1.7
O=C(CCS(=O)(=O)c1ccccc1)Nc1ccc2nc3n(c(=O)c2c1)CCCC3 | -1.7 | -0.47
CC(C)CNC1CC(=O)N(c2ccccc2)C1=O (configuration not stated) | -0.42 | -2.2
CC(=O)Nc1sc2c(c1C#N)CCCC2 | 0.23 | 0.23
Later entries.
SMILES | TAR Tat displ | CDC25B-CDK2 inh
Cc1ccc2nc(NCCC3=CCCCC3)c3nnnn3c2c1 | -5.1 | .
C=CCSc1nnc(NC(=O)c2cc(=O)c3ccccc3o2)s1 | 1.3 | -1.1
Fc1ccc(NC(c2nnc(-c3ccccc3)o2)c2ccccc2F)cc1F (configuration not stated) | 0.89 | .
CN1CCc2c(sc3c2CNC(c2ccc(Cl)cc2)c2cccn2-3)C1 (configuration not stated) | -8 | 2.2
CN(Cc1ccco1)C(=O)C1CCN(c2ccc(-c3cccs3)nn2)CC1 | -1.1 | .
CC(C)c1ccc(S(=O)(=O)c2nnn3c2nc(N2CCOCC2)c2sccc23)cc1 | 2 | .
CCN(Cc1ccccc1)c1ncnc2c1cnn2-c1ccc(F)cc1 | 2.3 | .
CNC(=O)c1c(NC(=O)Cc2coc3ccc(C)cc23)sc2c1CCCC2 | -0.86 | -2.2
CCc1nnc2c3ccccc3nc(NCc3ccco3)n12 | 0.13 | .
O=C1CC(=O)c2c(Cl)c(Cl)c(Cl)c(Cl)c21 | . | -0.06
O=C(NCc1cccs1)c1cnn(-c2ccccc2)c1-n1cccc1 | 0.8 | 0.14
Cc1nn(-c2ccccc2)c2[nH]c(=O)c(Cl)c(C)c12 | 0.65 | -2.2
COc1ccc(S(=O)(=O)N2CC(=O)Nc3ccccc32)cc1Br | 0.21 | -1.6
Oc1ccc(SSc2ccc(O)cc2)cc1 | . | -6
CCC(Sc1nc2ccncc2[nH]1)C(=O)NC1CCC(C)CC1 (configuration not stated) | 2.3 | 0.33

From PubChem
